Sa RN4220 lethal – growth inhibition of S. aureus RN4220, primary screen, OD600 | 16 h | inhibition, % (no concentration beside the values) | actives 0.33% (n = 330,000) | AID 1259311, 2017;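 active = z-score of -3 or lower and OD600 up to 0.18 on both plates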;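 note: plate controls were untreated cells for no effect and reference antibiotic for full effect; stock transfer was 100 nL into about 80 µL; one replicate is shown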
ugtP null kill – growth inhibition of ugtP-null S. aureus, primary screen, RN4220 ugtP deletion, OD600 | 16 h; some inactives read as strong as hits | actives 0.54% (n = 330,000) | growth inhibition, % (no concentration beside the values) | AID 1259309, 2017;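 active = z-score under -3 and OD600 up to 0.15 on both plates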;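 note: plate controls were untreated wells for no effect and antibiotic for full effect; wells of about 80 µL received 100 nL stock; the first replicate is given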
Bead autofluor – compound fluorescence in toxin protease inhibitor counterscreen; compound autofluorescence counterscreen, microsphere flow cytometry; hits give high values; fluorescence intensity (no concentration beside the values); actives 3.1% (n = 360,000); AID 624483;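 active = at least 3 SD above the mean of all compounds, about 16000 in these data; inconclusive = too few beads counted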;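 note: 100 nL of 1 mM stock went into each well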
PrP UTR inh – inhibition of PrP 5' UTR reporter expression; inhibition, % (test concentration not listed); AID 488862, 2010; actives 0.35% (n = 340,000); cell-based PrP 5' UTR mRNA reporter, plate reader;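 active = every replicate at 50% or more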;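 note: 0 = median of the neutral control wells; tested in H4 reporter cells; numbers are from one replicate; inactives centre near -14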
BJeLR viability – MLPCN primary cell-based screen for lethality selective to Ras in HRASV12 cells | BJeLR (HRASV12) viability, CellTiter-Glo ATP luminescence, 48 h; reference of the scale not given here | inhibition, % (no concentration beside the values) | actives 0.17% (n = 300,000) | AID 1554, 2009;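 active = replicate mean above 50%; inconclusive = above 50% but judged a plate artefact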;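 note: 50 nL library stock added to about 25 µL; numbers are from one replicate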
Mtb hypoxia inh – PubChem AID 1159583; M. tuberculosis hypoxia-regulated fluorescent reporter, fluorescence; fluorescence inhibition, % (test concentration not listed); actives 0.1% (n = 300,000);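 active = 35 to 45% if threefold the growth effect, above 45% if 1.5-fold the growth effect; inactive = the rest, general growth blockers included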;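 note: wells of about 50 µL received 100 nL stock; 0% = vehicle wells and 100% = reference inhibitor wells; whole bacteria with a GFP reporter of the hypoxia response; strong numbers were not always called active; many hits fall short of the cut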
Mtb hypoxia inh growth – second read-out of Mtb hypoxia inh, no call of its own (marks repeat the call); growth inhibition, %; measured here: M. tuberculosis growth (absorbance);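 0% = vehicle and 100% = reference antibiotic; read after six days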
* = called active by the depositor; ? = inconclusive; / = no result given; & = joins results of further samples. Compounds were not picked by outcome. About 4% of those tested had a hit in this group.

SMILES	Sa RN4220 lethal	ugtP null kill	Bead autofluor	PrP UTR inh	BJeLR viability	Mtb hypoxia inh	Mtb hypoxia inh growth
CN(C)c1ccc(C=c2sc3nc(-c4ccccc4)nn3c2=O)cc1	-2.1	-2	/	/	/	1	5
COc1ccc2nc(NC(=O)CSc3nnc(N)s3)sc2c1	3.2	8	2232	-14	2	2	7
Cc1cc(C)c(OCC(=O)OC(C)C(=O)N2CCc3ccccc32)c(C)c1 (configuration not stated)	2.4	13	4568	-24	10	1	0
CCCNC(=O)/C(C#N)=C1\N=C(NC(=O)c2ccco2)c2ccccc21	3.4	-2	5056	-16	14	3	4
CSc1ccc(-c2nc(CSCC(=O)NCCCN3CCCC3=O)c(C)o2)cc1	1.5	-1	5212	-15	9	-3	11
Cc1onc(-c2ccccc2Cl)c1C(=O)NC1CCCCCC1	2.7	1	5297	-15	-2	1	0
COc1cccc(/C=C/c2ccccn2)c1O	5.0	0	24116*	-106	-4	17	10
Cc1ccc(NC(=O)CCC(=O)N2CCN(S(=O)(=O)c3ccc(C)cc3)CC2)cc1	2.5	9	4173	-24	/	21	35
O=C1CCSc2cccc3cccc(c23)N1	-0.7	-3	9229	-10	7	-1	3
CCCCc1nnc(NC(=O)CCS(=O)(=O)c2ccc(C)cc2)s1	4.7	4	4320	-7	/	9	4
COC(=O)c1ccccc1NC(=O)Cn1nc2n(C)c3ccccc3n2c(=O)c1=O	4.2	7	/	/	1	4	-6
CC1=C(C)CC(C(=O)NC2CCN(C(C)C)CC2)C(C(=O)O)C1 (configuration not stated)	3.4	2	4421	4	-11	-2	-4
Cc1ccc(NC(=O)c2ccc(OC(=O)CCN3C(=O)c4ccccc4C3=O)cc2)cc1	1.9	3	2374	-112	2	/	/
COc1ccc(C(=O)OCC(=O)Nc2ccc(N3CCOCC3)cc2)cc1	-5.8	-6	3889	6	/	0	9
CCn1ncc(C2=NOC(C(=O)Nc3ccc4c(c3)OCO4)C2)c1C (configuration not stated)	2.8	-1	11065	-13	4	6	9
COc1ccc(COC(=O)CCS(=O)(=O)c2ccc(C)cc2)cc1F	/	/	6486	0	1	/	/
CCn1c(SCC(O)c2ccccc2)nnc1-c1ccccc1 (configuration not stated)	4.8	14	1928	-34	0	-4	-2
CCOC(=O)N1CCC2(CC1)C(C#N)=C(N)Oc1c2sc2nc(C)cc(C)c12	3.0	-5	5200	5	-10	6	14
Cc1cc([N+](=O)[O-])cc2c1NCC1CC=CC21 (configuration not stated)	2.2	-5	2031	-1	-4	16	0
COc1cc(C=NNC(=O)c2ccccc2O)ccc1OC(=O)CC1SC(=O)NC1=O (configuration not stated)	4.2	4	/	/	/	19	11
Cc1nnsc1C(=O)Nc1ccccc1	3.0	13	2545	-7	2	5	8
CCOc1ccccc1-n1c(O)c(C=NCCCn2ccnc2)c(=O)[nH]c1=O	2.7	5	4185	-6	-9	3	-8
COc1cc(NC(=O)Cc2c(C(=O)O)n(C)c3ccccc23)cc(OC)c1OC	4.6	3	5063	-5	3	9	-1
COc1ccccc1-c1c(C)nn2c(-c3ccccc3)cc(C)nc12	0.8	8	6260	-12	8	-2	3
COc1ccc(N2CCN(C(CNC(=O)c3ccc4c(c3)OCO4)c3ccco3)CC2)cc1 (configuration not stated)	0.8	4	4816	-10	7	9	1

Record cards, from the list above. Screens in order: Sa RN4220 lethal, ugtP null kill, Bead autofluor, PrP UTR inh, BJeLR viability, Mtb hypoxia inh, Mtb hypoxia inh growth
CC1=C(C)CC(C(=O)NC2CCN(C(C)C)CC2)C(C(=O)O)C1 (configuration not stated) is listed as 3.4, 2, 4421, 4, -11, -2, -4
O=C1CCSc2cccc3cccc(c23)N1 is listed as -0.7, -3, 9229, -10, 7, -1, 3
COc1ccc2nc(NC(=O)CSc3nnc(N)s3)sc2c1 is listed as 3.2, 8, 2232, -14, 2, 2, 7

Returning to the listing, repeating the 3 entries before the break.
SMILES	Sa RN4220 lethal	ugtP null kill	Bead autofluor	PrP UTR inh	BJeLR viability	Mtb hypoxia inh	Mtb hypoxia inh growth
COc1cc(NC(=O)Cc2c(C(=O)O)n(C)c3ccccc23)cc(OC)c1OC	4.6	3	5063	-5	3	9	-1
COc1ccccc1-c1c(C)nn2c(-c3ccccc3)cc(C)nc12	0.8	8	6260	-12	8	-2	3
COc1ccc(N2CCN(C(CNC(=O)c3ccc4c(c3)OCO4)c3ccco3)CC2)cc1 (configuration not stated)	0.8	4	4816	-10	7	9	1
Cc1ccc(C)c(OCC(O)CN2CCN(CCN3C(=O)c4cccc5cccc(c45)C3=O)CC2)c1 (configuration not stated)	8.0	-25	1903	-5	-4	-21	6
CCc1ccc(NC(=O)CSc2n[nH]c(C)c2[N+](=O)[O-])cc1	-1.4	2	2576	2	4	-7	-15
CS(=O)(=O)N1CCN(C(=O)Nc2ccccc2)CC1	5.1	11	2681	-10	9	11	-7
Cn1cccc1/C=C1\CCC/C(=C\c2cccn2C)C1=O	2.2	-14	6318	-59	-10	11	6
CCOc1ccc(CNc2ccc(N3CCOCC3)c(C(=O)O)c2)cc1	-4.6	-10	3164	-7	2	13	12
CC1CC(C)CN(S(=O)(=O)N2CCCC(C(=O)NCCc3ccccc3)C2)C1 (configuration not stated)	1.9	9	5127	-1	4	7	4
CCCc1nnc2n1N=C(c1ccc([N+](=O)[O-])cc1)CS2	4.1	1	5861	-25	-11	1	-3
CCC(=O)NC(c1ccc(N(C)C)cc1)c1c(O)ccc2ccccc12 (configuration not stated)	-0.8	7	2079	5	-7	-5	-1
COc1ccc(OC)c(S(=O)(=O)NCC(c2ccco2)S(=O)(=O)c2ccccc2)c1 (configuration not stated)	3.1	2	5083	8	-2	-3	15
CCOC(=O)Cn1c(-c2ccccc2)cc(SC)c(C#N)c1=O	0.9	3	3438	15	-7	3	2
Brc1ccc(/C=N/N2CCN(C3c4ccccc4-c4ccccc43)CC2)s1	/	/	2674	-19	-1	/	/
CN(C)[C@@H]1C(=O)C(C(N)=O)=C(O)[C@@]2(O)C(=O)C3=C(O)c4c(O)cccc4[C@@](C)(O)[C@H]3[C@H](O)[C@@H]12	/	/	5715&5822	-8&-19	0&-24	/	/
COC/C=C/C1=CC2=CC(=O)C(C)(OC(=O)c3cnc4ccccc4n3)C(=O)C2=CN1CCCCO (configuration not stated)	/	/	3670	-10	-4	/	/
c1ccc(C2Nc3ccccc3-c3nc4ccccc4n32)nc1 (configuration not stated)	0.5	1	3576	-10	5	/	/
CCC(C)NC(=O)c1cc(CC(C)C)on1 (configuration not stated)	3.2	8	6461	-13	-7	14	5
COC(=O)CN1C(=O)C2C(C3CC3)N3C(=O)CN(Cc4ccc(-c5ccccc5)cc4)C(=O)[C@@]3(Cc3ccccc3)C2C1=O (some centres not stated)	7.6	1	/	/	/	4	3
COc1ccc(NC(=O)COC(=O)C2CC(=O)N(CCc3ccc(OC)c(OC)c3)C2)cc1Cl (configuration not stated)	-0.4	4	3785	-3	/	-5	14
O=C(CSc1ccc(-c2cccs2)nn1)N1CCCCCC1	8.4	10	9232	-21	-17	15	3
CCCCCC1=NN2C(=O)CC(=O)N=C2S1	4.1	0	5262	-23	13	4	9
CCOc1ccccc1NC(=O)C(CC(C)C)NC(=O)C1CCC(C)CC1 (configuration not stated)	2.3	-12	3713	-7	-10	-7	4
CCC(CC)N1CCN(CCc2ccccc2)C(CCO)C1 (configuration not stated)	3.5	-5	3499	-7	-2	4	10
CCn1cc2nc(SCC(=O)Nc3ccc(OC)c(OC)c3)n(Cc3ccc(OC)cc3)c(=O)c2n1	1.2	-1	5977	-28	0	-6	8
CCN1CCCc2cc(CN(CCN3CCOCC3)C(=S)Nc3ccccc3OC)ccc21	1.8	1	4036	-10	7	-1	-5
Cc1cc(C)nc(SCc2nnc(SCC(=O)Nc3c(C)cccc3C)o2)n1	-14	-4	3304	-22	-3	15	3
CC(=O)Nc1ccc(S(=O)(=O)N2CCN3CCCC3C2)cc1 (configuration not stated)	1.4	0	4190	3	27	-6	5
Next structures follow.
SMILES	Sa RN4220 lethal	ugtP null kill	Bead autofluor	PrP UTR inh	BJeLR viability	Mtb hypoxia inh	Mtb hypoxia inh growth
COC(=O)c1c(N)sc(C(=O)N2CCOCC2)c1C	4.6	4	2513	-23	0	9	8
Cc1ccc(-c2nc(C)sc2CC(=O)NCc2ccco2)cc1	1.4	7	3334	-11	4	12	1
CCOc1cc2c(C#N)c(N(CC)CC)nc(N)c2c(N)n1	4.7	-18	5451	-16	-6	6	22
CCn1c(=O)c(=O)[nH]c2cc(C(=O)NCC3CCCCC3)ccc21	1.6	3	2323	-20	2	-8	-11
COc1cccc(NC(=O)CSCc2cc(=O)n3nc(C4CC4)sc3n2)c1	1.6	-2	5586	-17	1	2	-14
CC(C)S(=O)(=O)C/C(N)=N/OS(=O)(=O)c1ccc(Cl)cc1	2.2	8	4312	-22	-14	3	-7
CCC(C)N(C(=O)C(F)(F)F)C(C(=O)NC1CCCCC1)c1ccncc1 (configuration not stated)	6.3	6	9411	-23	3	11	5
CC(=NNC(=O)CNC(=O)C(c1ccccc1)c1ccccc1)c1ccco1	7.9	3	/	/	/	17	5
CCSc1nc2c(sc3nc(C)cc(C)c32)c(=O)[nH]1	8.9	-10	/	/	-3	-1	6
CCOC(=O)C1=C(NC#N)OC(C)=C(C)C1c1ccc(O)cc1 (configuration not stated)	0.3	-1	2413	-16	1	/	/
CN(C)CCCN(C(=O)c1ccc(S(=O)(=O)N2CCCc3ccccc32)cc1)c1nc2ccc(F)cc2s1	/	/	6312	-6	-7	/	/
Cc1cc(C)n2nc(C(=O)NCc3ccccc3)nc2n1	-12	-1	3522	-8	-3	-1	8
COc1cc(C)cc2oc(=O)c(CC(=O)N3C[C@H]4C[C@@H](C3)c3cccc(=O)n3C4)c(C)c12	3.2	-17	5195	-14	0	/	/
O=c1[nH]n(CC2COC3(CCCCC3)O2)c(=O)c2ccccc12 (configuration not stated)	3.9	3	11363	-36	3	4	2
O=C(CC1CC=CCCC(=O)OCC2CCCN2C1=O)NCCO (configuration not stated)	6.8&6.2	0&-4	/	/	/	-6&7	2&9
COc1ccc(C2C3=C(N=C4SCC(=O)N42)c2ccccc2CC3)cc1OC (configuration not stated)	-0.9	-1	24021*	-61	0	1	6
Cc1cccc(COc2ccc(C=NNC(=O)c3nnn(-c4nonc4N)c3C)cc2)c1	4.3	2	/	/	/	1	0
O=C(O)C1CCCN(S(=O)(=O)c2ccc(Cl)s2)C1 (configuration not stated)	1.5	3	4019	7	-2	/	/
Cc1ccc(NC(=O)CN(C)C(=O)C2CC(=O)N(Cc3ccccc3)C2)cc1 (configuration not stated)	0.9	6	?	-2	10	9	17
O=C1c2cccnc2C(Nc2ccccc2Br)N1Cc1ccco1 (configuration not stated)	6.5	6	2446	-12	-4	6	-1
COc1ccc(C(CNC(=O)c2cccc(S(=O)(=O)Nc3ccc(C)cc3)c2)N2CCOCC2)cc1 (configuration not stated)	3.4	12	4759	-4	13	7	3
Cc1ccc2c(CSc3nnnn3C)cc(=O)oc2c1	1.8	6	4320	-11	3	10	12
COc1ccc(OC)c(NC(=O)COc2ccc3c(c2)CCC3)c1	8.7	-1	/	/	/	5	2
CCSC1=NC2(CCCCC2)Nc2sc3c(c21)CCCC3	5.5	-1	3655	-17	-7	1	9
O=C(CSc1nc2ccccc2o1)Nc1nccs1	-2.2	10	4466	-26	4	2	-1
CCN(CC)c1ccc(C=NNC(=S)NCc2ccccc2)c(O)c1	0.2	-3	/	/	/	4	5
CC(=O)Oc1c(C)c(C)c2c(c1C)CC[C@@](C)(CCCC(C)CCCC(C)CCCC(C)C)O2 (some centres not stated)	7.4	-1	/	/	/	-5	0
O=C(NNC(=O)c1nc2ccccc2[nH]1)OCc1ccccc1	2.3	0	3841	2	/	11	18
COC(=O)C1C(=O)N2CCCSC2=C(C#N)C1c1cccs1 (configuration not stated)	4.1	1	12718	-17	2	2	1
COc1ccc(/C(C)=N/OC/C(O)=C(\C#N)c2nc3ccccc3[nH]2)cc1OC	/	/	4451	-14	-7	/	/
